Marburg entry inh: qHTS for inhibitors of binding or entry into cells for Marburg Virus; Marburg virus pseudotyped entry inhibition, cell reporter; control for the full effect not named in the record; about a third of the inactives were read at about 46 µM; 300,000 compounds, 1.8% hits; Potency, µM (series often up to 37.8 µM), for inactives: top-dose activity change, negative = inhibition, actives largely listed as inhibitors; active = well fitted inhibition curve with a large enough effect; inconclusive = small, poorly fitted or top-dose-only effect, or effect the other way; inactive = flat fitted curve, though single readings scatter; tested in HEK293 cells; about a fifth of its hits are not listed in these tables; note: % is set by controls: 0 for no effect and ±100 for the full control effect; luciferase read-out
SARS PLpro yeast: qHTS of Yeast-based Assay for SARS-CoV PLP; S. cerevisiae expressing SARS-CoV PLpro, growth rescue; control for the full effect not named in the record; Potency, µM (highest dose often 32.9 µM), for the others: at the highest dose activity, positive = growth rescue; 330,000 compounds, 0.19% hits; note: 0% is about no effect; nearly all actives have a fitted effect of over 55% in size; growth read by luminescence after 48 h
NS1 inh: qHTS Assay for Inhibitors of Influenza NS1 Protein Function | Potency, µM (highest dose often 46.1 µM), for the others: at the highest dose activity, positive = more growth | 270,000 compounds, 0.4% hits | AID 2326, 2010 | S. cerevisiae slowed by influenza A NS1, growth recovery by OD600; note: actives are rising curves; nearly all actives have a fitted effect of over 50% in size
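In this qHTS, NS1 from influenza A is expressed in budding yeast, where it slows growth. Cells are switched from glucose to 2% galactose medium (pH 6.0, -URA), treated with compound, and growth recovery is read at OD600.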
StopGo reporter: High Throughput Screening for Foot and Mouth Disease Virus Antivirals. human cells with a luciferase reporter of 2A StopGo recoding; control for the full effect not named in the record. Potency, µM (series often up to 57.9 µM), inactives show at the highest dose signal change, negative = less light. 410,000 compounds, 1.2% hits. AID 1159524, 2015; active = well fitted falling curve with a large enough effect; inconclusive = small, poorly fitted or top-dose-only effect; inactive = no such curve, though single readings can be large or run the other way; tested in HEK293T cells; note: % is set by controls: 0 for no effect and ±100 for the full control effect; nearly all actives have a fitted effect of over 45% in size; luciferase light after 4 h
Cruzain inh Det: qHTS Assay for Promiscuous and Specific Inhibitors of Cruzain (with detergent); Potency, µM, for the others: max response, negative = inhibition, most hits filed as inhibitors; 200,000 compounds, 0.43% hits; AID 1478, 2009; Cruzipain (Trypanosoma cruzi), P25779; purified cruzain, Z-FR-AMC fluorescence, 0.01% Triton; active = well fitted curve in the direction sought with a large enough effect; inconclusive = small, poorly fitted or top-dose-only effect, or another doubt; inactive = no such curve, though single readings can be large; an effect the other way counts as inactive or inconclusive;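 note: plate controls were neutral wells for no effect and buffer without enzyme for full effect; nearly all actives have a fitted effect of over 40% in size; top concentration of the series not given in the record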
Target sequence (P25779 123-467 limits assumed): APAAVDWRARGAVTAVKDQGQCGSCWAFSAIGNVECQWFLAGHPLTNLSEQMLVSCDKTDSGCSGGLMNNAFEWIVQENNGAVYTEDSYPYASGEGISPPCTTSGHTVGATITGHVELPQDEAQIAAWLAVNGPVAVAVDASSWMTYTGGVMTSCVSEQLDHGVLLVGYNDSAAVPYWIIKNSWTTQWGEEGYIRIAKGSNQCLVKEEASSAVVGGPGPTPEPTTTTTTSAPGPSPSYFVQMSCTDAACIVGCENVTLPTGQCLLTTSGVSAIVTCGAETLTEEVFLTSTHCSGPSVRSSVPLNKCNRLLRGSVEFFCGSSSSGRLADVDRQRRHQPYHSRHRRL
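Purified cruzain (1.5 nM final) was preincubated with compounds for 15 min at room temperature in 100 mM sodium acetate pH 5.5, 5 mM DTT, 0.01% Triton X-100. Reaction started with 2 uM Z-FR-AMC; AMC fluorescence change over 60 s gave activity.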
Lassa entry inh: qHTS for Inhibitors of binding or entry into cells for Lassa Virus. 300,000 compounds, 1.2% hits. Potency, µM (series often up to 37.9 µM), inactives show at the top dose activity change, negative = inhibition, usual class: inhibitors. Lassa virus pseudotype entry inhibition, cell reporter; control for the full effect not named in the record. AID 540256, 2011; active means well fitted inhibition curve with a large enough effect; inconclusive means small, poorly fitted or top-dose-only effect, or effect the other way; inactive means flat fitted curve, though single readings scatter; tested in HEK293 cells; note: % is set by controls: 0 for no effect and ±100 for the full control effect; nearly all actives have a fitted effect of over 50% in size; luciferase read-out
Cruzain inh noDet: qHTS Assay for Promiscuous and Specific Inhibitors of Cruzain (without detergent) | Cruzipain (Trypanosoma cruzi), P25779 | purified cruzain, Z-FR-AMC fluorescence, no detergent | Potency, µM, for inactives: max response, negative = inhibition, actives largely listed as inhibitors | 200,000 compounds, 2.3% hits; active = well fitted curve in the direction sought with a large enough effect; inconclusive = small, poorly fitted or top-dose-only effect, or another doubt; inactive = no such curve, though single readings can be large; an effect the other way counts as inactive or inconclusive;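 note: plate controls were enzyme without inhibitor for no effect and buffer without enzyme for full effect; nearly all actives have a fitted effect of over 40% in size; top concentration of the series not given in the record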
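Detergent-free condition (0.00005% Triton X-100) in acetate buffer pH 5.5 with DTT. 1.5 nM enzyme and compound were pre-mixed 15 min, then 2 uM Z-FR-AMC substrate added; reaction progress from fluorescence change between first and third reads (60 s).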
RE007 growth inh: qHTS Assay for Inhibitors of the HIV-1 protein Vpr; S. pombe RE007 Vpr strain, BacTiter-Glo ATP luminescence, 24 h; control for the full effect not named in the record; Potency, µM (titrated, usually from 92.2 µM), inactives show top-dose activity change, negative = less growth; 360,000 compounds, 0.21% hits; AID 651644, 2012; active = well fitted falling curve with a large enough effect; inconclusive = small, poorly fitted or top-dose-only effect; inactive = no such curve, though single readings can be large or run the other way;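 note: % is set by controls: 0 for no effect and ±100 for the full control effect; nearly all actives have a fitted effect of over 50% in size; the assay follows cell death caused by Vpr and the record does not say whether a fall means rescue or toxicity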
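Fission yeast strain RE007, carrying one chromosomally integrated HIV-1 vpr copy, was seeded at OD 0.01 in PMG+AL medium with 23 nL pinned compound. After 24 h at 30 °C and 99% humidity, viability was read by BacTiter-Glo luminescence.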
Numbers without * were called inactive; ? = inconclusive; nt = not tested or not shown; [ ] = another dose, or the depositor's remark. Unless noted, calls come from the whole dose curve; as a rule, active means well fitted rising curve with a large enough effect; inconclusive means small, poorly fitted or top-dose-only effect; inactive means no such curve, though single readings can be large or run the other way. Potency is the fitted concentration of half-maximal effect.

A first look (4 entries):
Value order: Marburg entry inh	SARS PLpro yeast	NS1 inh	StopGo reporter	Cruzain inh Det	Lassa entry inh	Cruzain inh noDet	RE007 growth inh
- O=C1N/C(=N\N=C\c2ccco2)SC1Cc1ccccc1[N+](=O)[O-] (stereo not given)
    nt	0%	-31%	23%	nt	nt	nt	-8%
- Cc1cccc(NS(=O)(=O)c2cccc(C(=O)NCC(C)(C)N3CCOCC3)c2)c1
    ?	1%	3%	5%	nt	?	nt	3%
- C=CCc1cccc2cc(C(=O)NC3=C(C#N)CCC3)c(=O)oc12
    9%	-4%	1%	-11%	-8.2%	6%	5%	-15%
- CCOc1ccc(CCNC(=O)c2[nH]c3cc(OC)ccc3c2Sc2ccccc2)cc1OCC
    ?	nt	nt	-23%	-2.2%	22%[46.1 µM]	-3%	nt

The listing (from the top)
Value order: Marburg entry inh	SARS PLpro yeast	NS1 inh	StopGo reporter	Cruzain inh Det	Lassa entry inh	Cruzain inh noDet	RE007 growth inh
- O=C1N/C(=N\N=C\c2ccco2)SC1Cc1ccccc1[N+](=O)[O-] (stereo not given)
    nt	0%	-31%	23%	nt	nt	nt	-8%
- Cc1cccc(NS(=O)(=O)c2cccc(C(=O)NCC(C)(C)N3CCOCC3)c2)c1
    ?	1%	3%	5%	nt	?	nt	3%
- C=CCc1cccc2cc(C(=O)NC3=C(C#N)CCC3)c(=O)oc12
    9%	-4%	1%	-11%	-8.2%	6%	5%	-15%
- CCOc1ccc(CCNC(=O)c2[nH]c3cc(OC)ccc3c2Sc2ccccc2)cc1OCC
    ?	nt	nt	-23%	-2.2%	22%[46.1 µM]	-3%	nt
- O=C(CCN1C(=O)C2CCCCC2C1=O)Nc1ccc(F)c(F)c1F (stereo not given)
    6%[46.1 µM]	3%	0%	10%	nt	9%	nt	-20%
- CSCc1ccc(C(=O)OCc2nc3ccccc3s2)o1
    ?	-20%	nt	23%	nt	0%[46.1 µM]	nt	-25%
- Cc1ccc(C2C(C#N)C(C#N)N3CCCN23)cc1 (stereo not given)
    -9%	-2%	-10%	-11%	3.6%	-3%	1%	-2%
- O=c1c2ccccc2c(C=NCCCN2CCOCC2)c(O)n1Cc1ccccc1
    -26%	3%	-12%	-2%	-0.9%	-4%	0%	-2%
- CCCC1=Nc2cc(C(=O)NCc3ccccc3)ccc2Sc2ccccc21
    ?	nt	nt	-10%	-5.7%	?	5%	nt
- CCCCNC(=O)c1cccnc1SCC(=O)Nc1ccccc1OC
    -29%	-1%	-5%	1%	-2.3%	1%	-1%	?
- N#C/C(=C\c1cccc(OC(=O)c2cccs2)c1)C(N)=O
    -15%	-2%	-15%	-21%	-10.0%	7%	4%	-12%
- CCOc1ccc(Oc2ccc(NC(=O)[C@@H](NC(N)=O)[C@@H](C)CC)cc2)cc1
    nt	0%	-4%	15%	nt	nt	nt	1%
- COc1cccc(NC(=O)CCN2C(=O)c3ccc([N+](=O)[O-])cc3C2=O)c1
    20%[46.1 µM]	-3%	nt	-10%	nt	15%	nt	-5%
- Cc1ccc(NC(=O)c2cnn(-c3ccc(C)c(C)c3)c2C2CCN(C(=O)OC(C)(C)C)CC2)c(C)c1
    ?	nt	nt	-10%	4.2%	?	21%	nt
- COCCSc1ccccc1C(=O)Nc1cc([N+](=O)[O-])ccc1OC
    nt	0%	1%	-16%	nt	nt	nt	-3%
- CC(=O)NCCNC(=O)c1cc(-c2cccc3ccccc23)nc2ccccc12
    -15%	nt	nt	-13%	nt	-21%	nt	7%
- COc1ccc(-c2ccc(NCCN3CCOCC3)nn2)cc1OC
    nt	-4%	2%	-14%	nt	nt	nt	-8%
- O=C(COC(=O)c1cccc([N+](=O)[O-])c1)c1ccc(OCc2ccccc2)cc1
    -7%	12%	0%	0%	-2.7%	5%	25µM*	-15%
- CC(C)Sc1ncc(Cl)c(C(=O)Nc2ccc(S(=O)(=O)N(C)c3ccccc3)cc2)n1
    ?	nt	nt	-25%	-4.7%	3%[46.1 µM]	?	nt
- Cc1ccnc(NC(=O)c2ccc3[nH]c(=O)c(=O)[nH]c3c2)c1
    nt	-1%	0%	-5%	nt	nt	nt	1%
- COc1ccc(N2C(=O)C3CCCN3C2c2cc(OC)c(OC)c(OC)c2)cc1 (stereo not given)
    -4%	27%	-3%	-3%	-2.6%	nt	5%	-8%
- CNC(=O)Cn1nc(-c2ccc(C)cc2)c2ccccc2c1=O
    -25%[46.1 µM]	3%	0%	-21%	nt	-24%[46.1 µM]	nt	-1%
- Cc1noc(C)c1CSCC(=O)Nc1cc(S(C)(=O)=O)ccc1Cl
    -22%	9%	nt	-16%	nt	7%	nt	-7%
- O=C(Cc1cccs1)NCc1ccc(Cl)cc1
    11%[46.1 µM]	26%	-3%	22%	nt	10%[46.1 µM]	nt	-4%
- O=C(Nc1ccc(S(=O)(=O)NCC2CCCO2)cc1)c1cnccn1 (stereo not given)
    -5%	-1%	2%	12%	nt	-1%[46.1 µM]	nt	-2%
- Cc1ccc(Oc2ccc(/C=N/O)cn2)cc1
    ?	-4%	5%	27%	3.2%	23%	-4%	-23%
- Cn1c(=O)n(CCOc2ccc(Cl)cc2Cl)c2ccccc21
    23%	-1%	-2%	-15%	2.8%	28%	?	3%
- CC[C@@H](C)[C@H](C(CC(=O)N1CCCC1[C@@H](OC)[C@H](C)C(=O)N[C@H](Cc1ccccc1)c1nccs1)OC)N(C)C(=O)[C@H](NC(=O)[C@@H](C(C)C)N(C)C)C(C)C (stereo not given in full)
    -2%	nt	nt	-12%	nt	nt	nt	0%
- CC1=C(C(=O)OCC2CCCO2)C(c2ccncc2)C2=C(CC(C)(C)CC2=O)N1 (stereo not given)
    -2%[46.1 µM]	12%	-5%	4%	4.1%	?	2%	-1%
- O=C(O)c1ccc(-n2nnc3ccccc32)c([N+](=O)[O-])c1
    12%	0%	-3%	19%	nt	11%	nt	25%
- O=C(O)c1ccccc1Nc1ccccc1C(=O)O
    8%	3%	?	11%	-8.3%	2%	-8%	5%
- OCCNc1nc(NCCC2=CCCCC2)nc(N2CCOCC2)n1
    ?	-6%	3%	-19%	-1.1%	-25%	8%	1%
- Nc1cc(=O)[nH]c(SCC(=O)NCCC2=CCCCC2)n1
    -3%	2%	nt	-10%	nt	5%	nt	-4%
- O=[N+]([O-])c1cc(S(=O)(=O)Nc2ccccc2)ccc1N1CCN(c2ccccc2)CC1
    ?	-5%	2%	?	-1.4%	?	-20%	-11%
- COc1ccc(OC)c(S(=O)(=O)NC2CC2)c1
    nt	-3%	1%	54%[activator]	nt	nt	nt	9%
- Cc1ccc(Oc2ccc(S(=O)(=O)NCC(C)(C)N3CCOCC3)cc2)cc1
    ?	4%	-3%	-27%	nt	?	nt	-10%
- O=C(CN1C(=O)CC(c2ccccc2)S(=O)(=O)c2ccccc21)N1CCCCC1 (stereo not given)
    27%[14.2 µM]	0%	nt	-7%	nt	-12%	nt	-2%
- CCOC(=O)Nc1ccc(C(N)=O)cc1
    17%	-5%	-6%	24%	2.9%	-5%	-1%	-3%
- O=C(Nc1nccs1)c1ccc(S(=O)(=O)N2CCOCC2)cc1
    ?	0%	3%	-26%	nt	?	nt	-7%
- CCn1c(=S)[nH]c2cc(S(=O)(=O)N3CCOCC3)ccc21
    8%	21%	nt	-13%	nt	17%	nt	0%
- COc1cccc(CNC(=O)c2cccc(Br)c2)c1
    ?	-9%	-17%	4%	-1.6%	0%	2%	-28%
- COc1ccccc1C(=O)NCC(=O)N=Nc1c(O)n(C(C)C)c2ccccc12
    nt	10%	6%	-26%	nt	nt	nt	-7%
- COc1cccc(/C(O)=C/c2nc3ccc(C(=O)NCCc4ccc(Cl)cc4)cc3[nH]c2=O)c1
    ?	-21%	18%	?	-7.1%	?	25µM*	-5%
- COc1ccc(NC(=O)COc2ccccc2)cc1Cl
    23%	-5%	-28%	22%	nt	21%	nt	16%
- CCN(CC)S(=O)(=O)c1ccc(NC(=O)CSc2nc3nc(C)cc(C)c3c(=O)[nH]2)cc1
    ?	nt	nt	0%	nt	3%	nt	14%
- CC(NC(=O)C(NC(=O)C(Cc1c[nH]c2ccccc12)NC(=O)OC(C)(C)C)C(C)C)C(N)=O (stereo not given)
    6%[46.1 µM]	0%	nt	16%	nt	-16%	nt	3%
- COc1cccc2cc(C(=O)N3CCN(c4ccccc4F)CC3)c(=O)oc12
    12%[46.1 µM]	8%	-27%	23%	-2.1%	11%	8%	-15%
- Cc1cc(C)cc(NC(=O)N2CCN3CCCCC3C2)c1 (stereo not given)
    nt	nt	nt	-6%	-3.0%	22%[46.1 µM]	31%	nt
- CCCOc1ccc(C(=O)NCC(c2cccs2)N(C)C)cc1 (stereo not given)
    ?	-1%	-6%	24%	-0.6%	-2%	20%	16%
- COC(=O)c1cc(Br)cn1S(=O)(=O)c1ccccc1
    0%[46.1 µM]	-1%	6%	-1%	nt	8%[46.1 µM]	nt	2%
- CC(=O)c1ccc(-c2nc3c4ccccc4ccn3c2C(C)=O)o1
    1µM*	0%	-2%	7%	-1.9%	1.3µM*	1%	-3%
